# Assay outcomes: PubChem, National Center for Advancing Translational Sciences (NCATS)
# miR-21 FLuc = raises the signal of a miR-21 reporter; HeLa miR-21 FLuc reporter, luciferase, 48 h; Potency, µM (highest dose often 38.3 µM), for the others: top-dose reporter change, positive = more light; 340,000 tested, under 10 active; AID 2288; active = well fitted rising curve with a large enough effect; inconclusive = small, poorly fitted or top-dose-only effect; inactive = no such curve, though single readings can be large or run the other way;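 also: % of control where 0% means no effect; miR-21 action dims this reporter so a rising signal means less miR-21 action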
#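 Compounds were titrated across several concentrations (up to approximately 40 uM) and incubated 48 hours with HeLa miR-21-FLuc reporter cells (miR-21 target sequence downstream of FLuc, endogenous miR-21). Readout was firefly luciferase luminescence after lytic detection reagent.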
# Rango release inh = prevents RanGTP from dissociating the Rango-importin beta complex. Biochemical FRET Rango-importin beta, RanGTP-induced dissociation. Potency, µM (highest dose often 46.1 µM), inactives show at the highest dose activity change, negative = inhibition. actives 0.071% (n = 340,000); active means falling FRET ratio curve, often poorly fitted, with flat reads before Ran was added; inconclusive means other falling curves, or compound fluorescence or quenching; inactive means flat or rising ratio curve;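 also: potency is read from the fitted curve at half-maximal effect; % of control where 0% means no effect; nearly all actives have a fitted effect of over 45% in size; -100% = wells without RanGTP and RCC1; the record marks most hits as doubtful in a second field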
#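 Two FRET readings bracket the reaction: one 5 min after compound meets Rango–importin beta, another 45 min after RanGTP-RCC1 (0.6 uM Ran, 0.2 uM RCC1, 2 mM GTP) is added. Only the second defines inhibition.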
# Rango complex inh = inhibitors of Rango-importin beta complex formation; actives 0.031% (n = 340,000); Rango CFP/YFP FRET sensor + importin beta, 45 min; Q14974; Potency, µM (doses to about 92.2 µM), for inactives: at the top dose inhibition of complex formation; active = rising FRET ratio curve, often small or poorly fitted; inconclusive = mostly compound fluorescence or quenching in the first reads; inactive = flat curves in all reads;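 also: potency is read from the fitted curve at half-maximal effect; 0% = DMSO wells and 100% = buffer wells lacking importin beta; nearly all actives have a fitted effect of over 15% in size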
# Target sequence (Q14974 whole entry, looked up): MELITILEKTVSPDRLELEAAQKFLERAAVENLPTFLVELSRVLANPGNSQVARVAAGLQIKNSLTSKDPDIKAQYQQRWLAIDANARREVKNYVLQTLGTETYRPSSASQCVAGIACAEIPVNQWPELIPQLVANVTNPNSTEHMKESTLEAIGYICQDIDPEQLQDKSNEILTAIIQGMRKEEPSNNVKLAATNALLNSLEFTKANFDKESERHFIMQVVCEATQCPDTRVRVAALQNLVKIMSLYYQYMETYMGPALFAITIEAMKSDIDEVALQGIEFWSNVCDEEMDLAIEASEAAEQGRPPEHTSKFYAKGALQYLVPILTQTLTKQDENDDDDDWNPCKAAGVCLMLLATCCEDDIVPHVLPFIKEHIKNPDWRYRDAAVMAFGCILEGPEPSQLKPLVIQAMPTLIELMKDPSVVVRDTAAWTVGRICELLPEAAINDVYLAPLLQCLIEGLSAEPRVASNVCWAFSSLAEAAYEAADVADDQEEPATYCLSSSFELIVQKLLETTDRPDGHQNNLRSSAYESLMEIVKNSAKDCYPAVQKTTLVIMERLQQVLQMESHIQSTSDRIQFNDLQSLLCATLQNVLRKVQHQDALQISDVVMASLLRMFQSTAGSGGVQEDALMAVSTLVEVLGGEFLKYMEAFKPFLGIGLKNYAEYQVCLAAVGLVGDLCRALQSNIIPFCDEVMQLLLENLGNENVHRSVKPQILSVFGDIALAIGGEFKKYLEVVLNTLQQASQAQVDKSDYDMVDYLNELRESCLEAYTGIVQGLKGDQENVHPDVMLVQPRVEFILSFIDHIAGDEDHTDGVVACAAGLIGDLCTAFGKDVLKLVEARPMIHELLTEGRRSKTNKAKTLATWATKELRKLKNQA
#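 FRET biosensor Rango (snurportin 1 IBB between N-terminal EYFP and C-terminal Cerulean), 50 nM in PBS/1 mM DTT/0.02% Tween-20/0.1% BSA, preincubated 5 min RT with compound; 0.125 microM importin beta added, 45 min RT, CFP/YFP FRET ratio read.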
# GLA inh pH 4.5 = blocks human alpha-galactosidase A at pH 4.5; P06280; purified enzyme, 4-MU-alpha-Gal fluorescence, pH 4.5; activity change, negative = inhibition, % at 105 µM; 230,000 tested, under 10 active; AID 1467; inconclusive = small, poorly fitted or top-dose-only inhibition, or a rising curve; inactive = flat fitted curve, though single readings scatter; no compound was filed as active;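 also: 0% = full activity with enzyme and -100% = basal without enzyme; dose as in the result columns while the protocol names 77 µM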
# * = called active by the depositor; u = inconclusive; x = no result given; & = joins results of further samples; [ ] = dose if it differs, or a comment. An excerpt. The share of hits here may be higher or lower than overall.
SMILES,miR-21 FLuc,Rango release inh,Rango complex inh,GLA inh pH 4.5
CCOC(=O)NC(=O)COC(=O)CCCSc1nc2ccccc2s1,14.5%,-14.7%,1.2%,1.8[21.1 µM]
CCOC(=O)c1oc2ccccc2c1NC(=O)c1cccc(OC)c1OC,22.1%,-2.8%,-3.7%,-5.6
O=S(=O)(c1ccc(OCC(O)CN2CCc3ccccc3C2)cc1)N1CCOCC1 (stereo not given),-2.5%,4.6%,-0.8%,-1.2
COc1ccc(/C=C(/NC(=O)c2ccc(C)cc2)C(=O)NCc2ccncc2)cc1,0.8%,-2.7%,0.7%,x
Cc1onc(-c2ccccc2)c1C(=O)N1CCN(C/C=C/c2ccccc2)CC1,3.9%,-5.4%,-3.3%,-1.7
CCOC(=O)C1(Cc2ccc(OC)cc2)CCN(C(=O)Cc2cccnc2)CC1,-6.1%,-7.8%,2.9%,-6.5
C[C@@H](CN1C2=NC[C@H](Cc3ccc(O)cc3)N2C[C@H]1Cc1ccc(O)cc1)NC(=O)CCC1CCCCC1,-0.8%,-4.4%,-1.6%,-0.1
CCN(CCO)C(=O)c1ccc2nc(Cc3ccc(OC)cc3)oc2c1,x,-9.2%,-0.4%,x
COC(=O)C(Cc1cnc[nH]1)NC(=O)C1CCC(=O)N1 (stereo not given),-0.9%,5.6%,6.3%,-0.5
CC(=O)Nc1ccc(S(=O)(=O)N(Cc2ccccc2)c2ccccc2)cc1,-11.8%,3.8%,-0.9%,8.1
CCOc1nc(-c2ccc(C)cc2)ccc1-c1noc(COC)n1,-17.1%,-2.9%,-2.5%,-28.0
Cc1ccc(NS(=O)(=O)c2c(C)[nH]c(=O)[nH]c2=O)cc1C,-0.3%,-9.0%,6.3%,3.8
Cc1ccc(C(=O)N/N=C\c2ccccc2[N+](=O)[O-])cn1,-27.0%,8.5%,5.3%,-5.3
O=C(O)CN1C(=O)CSc2ccccc21,-2.2%,3.9%,0.0%,3.5
Cc1cc2ccccc2c(=O)n1CC(=O)NCCC1=CCCCC1,-2.3%,-13.4%,1.4%,-0.5
Cc1cccc(NC(=O)CCS(=O)(=O)c2cccc3nonc23)c1C,0.7%,18.5%,2.5%,x
O=[N+]([O-])c1cc(-n2cccc2)ccc1N1CCOCC1,-25.8%,11.6%,-1.1%,10.2
CCCCNS(=O)(=O)c1ccc(S(=O)(=O)n2cnc3ccccc32)cc1,-0.4%,10.2%,-1.9%,-2.6
CC(C)NS(=O)(=O)c1ccc(OCC(=O)Nc2ccc3c(c2)OCCO3)cc1,-4.5%,-8.8%,u,-6.9
N#Cc1ccc(-c2ccc(F)cc2)nc1Oc1ccc(Cl)c(Cl)c1,-1.5%,1.0%,-0.6%,7.0
O=C(COC(=O)c1cccnc1Cl)Nc1cccc(S(=O)(=O)N2CCCCC2)c1,6.5%,-3.2%,-4.9%,1.8
O=C(CN1C(=O)NC2(CCCC2)C1=O)OCC(=O)c1cccc(Cl)c1,x,-3.2%,-1.6%,x
CC(=O)Nc1ccc(NC(=O)C(C)OC(=O)/C=C/c2cccs2)cc1 (stereo not given),-5.8%,5.9%,-5.3%,-1.2
CCCC(=O)N1CCCC(c2nc(-c3cccc(OC)c3)no2)C1 (stereo not given),-58.4%,-1.6%,0.0%,-7.0
O=[N+]([O-])C1=CC=C2C(=NC3(CCCCC3)N2O)C1=NCCO,0.8%,-4.7%,-4.2%,2.6

# Remaining list, next part:
SMILES,miR-21 FLuc,Rango release inh,Rango complex inh,GLA inh pH 4.5
COc1ccccc1OCC(=O)N(Cc1nc(-c2ccc(Cl)cc2)no1)C(C)C,-0.4%,-18.4%,2.8%,1.9
COc1cc(/C=C/C(=O)NC(C)CCc2ccccc2)cc(OC)c1OC (stereo not given),-0.2%,8.4%,-0.3%,-9.0
CC(C)(C)OCC(O)CN1CCN(C(=O)c2ccccc2)CC1 (stereo not given),0.4%,6.9%,1.9%,-1.5
Cc1ccc(CNC(=O)CCOc2ccc(C(C)(C)C)cc2)cc1,-2.3%,7.2%,0.2%,-0.2
COC(=O)C1Cc2ccccc2CN1C(=O)CCl (stereo not given),u,-15.7%,-0.3%,1.9
O=C(NN=Cc1ccc(O)cc1)c1ccccc1NS(=O)(=O)c1cccs1,x,-3.7%,-1.7%,x
COc1cc2c(cc1OC)C(CSc1ccccc1C(=O)O)=NC(C)(C)C2,-42.2%,-0.5%,u,3.1
O=C(COC(=O)C12CC3CC(CC(O)(C3)C1)C2)Nc1ccc(Cl)c(S(=O)(=O)N2CCOCC2)c1,x,-13.3%,0.8%,x
CCN1C(=O)[C@H]2[C@@H](c3ccc(C)cc3)N3C(=O)N(c4ccc(OC)cc4)C(=O)[C@@]3(C)[C@H]2C1=O,-1.7%,6.1%,u,x
CCc1c(C)nc(N)n2c(SCC(=O)N3CCN(c4ccccc4OC)CC3)nnc12,0.0%,x,x,3.8
CC1=[N+]([O-])C(N2CCOCC2)C(O)(c2ccccc2)C1 (stereo not given),-1.7%,12.2%,2.4%,2.2
COC(=O)c1c(C)[nH]c(C(=O)OC(C)C(=O)N2CCOCC2)c1C (stereo not given),x,-6.5%,-0.7%,x
COc1cc2c(cc1OC)CN(C(=O)CSc1nc(N)c(C#N)cc1C#N)CC2,-13.7%,u,u,-5.7
CCOCCCn1cnc2c3cc(F)ccc3n(C)c2c1=O,-18.7%,-18.8%,0.9%,4.5
COC(=O)CCC(=O)N1CCOCCOCCOCC1,0.1%,-6.8%,-0.2%,5.3
CC(C)C(NC(=O)c1ccccc1Cl)C(=O)OCc1nc2scc(-c3ccccc3Cl)c2c(=O)[nH]1 (stereo not given),2.6%,15.7%,u,-6.0
CC(C)C(=O)Nc1ncc(Cc2cccc(Cl)c2)s1,-3.4%,0.0%,0.1%,-0.5
CCOc1ccc(-n2nnc3c(=O)n(CC(=O)c4ccccc4)cnc32)cc1,-6.2%,-4.7%,3.9%,-3.6
CC(C)CC(c1nnnn1C(C)(C)C)N1CCN(Cc2ccccc2)CC1 (stereo not given),-0.9%,0.8%,-0.2%,-3.0
COc1ccccc1C(=O)N/C(=C/c1ccc(Br)cc1)C(=O)NCCCn1ccnc1,-0.5%,-4.4%,3.6%,x
COc1ccc(C2SCC(=O)N2c2nc3ccccc3s2)cc1 (stereo not given),-36.3%,0.5%,u,0.9
O=C1Cc2ccccc2Sc2ccc(O)cc21,-16.3%,24.4%,u,1.5
COc1ccc(OCc2cc(/C=N\NC(=O)c3ccccc3)ccc2OC)cc1,-18.6%,0.4%,0.1%,x
O=C(c1cc(COc2ccc(F)cc2Cl)on1)N1CCN(c2cnccn2)CC1,-1.2%,-2.6%,0.1%,x
Cc1cc(C)c(C(=O)c2ccccc2)c(C)c1,x,4.9%,0.8%,x

# Continuation:
SMILES,miR-21 FLuc,Rango release inh,Rango complex inh,GLA inh pH 4.5
O=C(CSCc1ccc(Cl)cc1)Nc1cccc(C(=O)Nc2ccccc2C(=O)O)c1,-1.8%,12.5%,0.2%,-4.7
O=C(NCC1CCCO1)c1cccc(NC(=O)c2ccccc2)c1 (stereo not given),-8.7%,1.7%,0.2%,x
C=C(C(=O)c1ccccc1)C(C)CC(=O)c1ccccc1 (stereo not given),u,0.1%,11.0%,4.8
CCN1CCN(c2ccccc2NC(=O)c2ccc(-n3cccn3)cc2)CC1,x,41.2%,-4.4%,x
Cc1ccc(C(=O)Nc2ccccc2N2CCN(C(=O)C(C)C)CC2)cc1,-3.5%,-5.0%,2.1%,0.4
Cc1nc2ccccc2c(=O)n1/N=C/c1ccncc1,-15.1%,u,-0.3%,-1.8
C[n+]1ccccc1/C=N/O,0.1%&-4.5%,u,-0.3%&0.0%,-5.5&-14.2
COc1ccc(C(=O)NCC(=O)N2CCNC(=O)C2)cc1OC,0.7%,6.0%,1.0%,x
Cc1c(C(=O)OCC(=O)NC(C)c2ccccc2)oc2ccccc12 (stereo not given),-0.4%,-0.6%,-2.0%,x
COc1ccc2nc(SCc3ccccc3C)nc(C)c2c1,-11.9%,8.4%,0.1%,-6.5
CCc1noc(C)c1C(=O)Nc1ccc(S(=O)(=O)N2CCCCC2)cc1,x,5.9%,0.9%,x
CN(C1(C)CCS(=O)(=O)C1)S(=O)(=O)c1ccc2ccccc2c1 (stereo not given),x,-5.3%,-3.0%,x
CC1CCCC(NC(=O)COC(=O)/C=C/c2ccc(S(=O)(=O)N3CCOCC3)cc2)C1C (stereo not given),-2.6%,1.0%,3.5%,u
CCNC(=O)/C(C#N)=C/c1c(N(Cc2ccccc2)Cc2ccccc2)nc2ccccn2c1=O,17.5%,u,u,-12.9
COC(=O)c1cccnc1NC(=S)NC1CCCCC1,-0.7%,14.0%,3.1%,-4.3
Cc1cc(-c2csc(N)n2)c(C)n1-c1ccc(Cl)c(Cl)c1,-7.3%,0.2%,1.8%,6.7
FC(F)(F)c1ccc(NC(=S)NCc2ccccc2)cc1,28.2%,-2.3%,-5.9%,-5.0
FC(F)(F)c1cccc(N2Cc3ccccc3C2)c1,-17.7%,12.0%,1.3%,5.6
O=C(Nc1c2c(nn1-c1ccccc1)CS(=O)(=O)C2)c1ccccc1Br,-5.5%,-5.8%,-2.2%,x
COc1ccc(N(CC(=O)Nc2ccc(C(C)C)cc2)S(=O)(=O)c2c(C)noc2C)cc1,-1.0%,-11.4%,0.5%,x
CCOC(=O)C1=C(C)NC(C)=C(C(=O)OCC)C1c1ccc(O)cc1,-5.5%,-0.9%,5.1%,4.5
COc1ccc(-c2cc3ccccc3s2)cc1[C@H]1[C@H]2C=CC[C@@H](C)[C@@H]2C(=O)N1Cc1ccccc1,-37.7%,-9.7%,-0.2%,-10.8
Cn1nc(C(F)(F)F)c(C#N)c1N1CCN(c2ccccc2)CC1,29.2%,-11.0%,4.4%,0.9
COc1cc(C(=S)N2CCC(C(N)=O)CC2)ccc1O,-1.7%,15.4%,-1.5%,9.0
CC(C)[C@H](NC(=O)N1c2ccccc2NC(=O)[C@@H]1C(C)C)C(=O)N[C@@H](Cc1c[nH]c2ccccc12)C(=O)O,-0.6%,3.9%,-2.5%,x

# Other records follow:
SMILES,miR-21 FLuc,Rango release inh,Rango complex inh,GLA inh pH 4.5
O=C(NCCN1CCOCC1)c1cc(Cl)ccc1[N+](=O)[O-],1.2%,x,x,0.6
C/C(=N\NC(=O)CSc1nc(C)cc(C)n1)c1ccc2c(c1)OCCO2,-41.2%,6.8%,0.6%,-4.6
COc1ccc(C(=O)CSc2n[nH]c(C)n2)cc1[N+](=O)[O-],-5.7%,-11.8%,0.7%,-1.4
O=C(c1cccc(Br)c1)c1coc2ccc(O)cc12,x,1.0%,-2.7%,x
O=C(CSc1cccc2cccnc12)Nc1ccc(S(=O)(=O)N2CCOCC2)cc1,22.1%,-3.7%,3.8%,-4.1
O=C(COC(=O)C1CCCN1C(=O)c1cccs1)c1ccccc1 (stereo not given),-6.1%,1.0%,-1.4%,-6.8
CSc1ccccc1NC(=O)CN1c2ccccc2CC1C (stereo not given),-3.0%,-10.5%,u,0.6
CCOC(=O)[C@H](CCc1ccccc1)N[C@@H](C)C(=O)N1CCC[C@@H]1C(=O)O,x,-5.5%,6.7%,x
CCc1nnc(NC(=O)CSc2nnc(-c3c[nH]c4ccccc34)n2CC)s1,-1.7%,11.7%,-0.3%,2.2
Cc1nc(-c2coc3cc(C)c(N=O)c(O)c3/c2=N\N)cs1,-0.1%,-7.7%,u,0.9
